# High-throughput results as filed in PubChem.
# Ecoli rRNA inh: inhibitors of bacterial rRNA selective over humanized ribosomes | GFP signal change (wild-type ribosome), % (test concentration not listed) | AID 720706 | 350,000 compounds, 1.6% hits | E. coli WT GFP vs humanized-ribosome RFP mutants, fluorescence, 24 h; hits give low values; DMSO median 0, no signal -100;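 active = significant combined selectivity score with lowered wild-type GFP, culture density cut under 30%, mutant RFP and density less affected; inactive = any of these conditions unmet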; note: one replicate is shown; some compounds called inactive have numbers as strong as hits
# RanGTP-Imp inh: disruptors of Ran-importin-beta complex formation – biochemical, FRET, CFP-Ran, YFP-importin-beta, homogeneous, primary screen; cell-free CFP-Ran/YFP-importin-beta FRET ratio; inhibition, % (no concentration beside the values); 300,000 compounds, 1.1% hits; AID 2216;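 active = most replicates above 15%; inconclusive = exactly half above 15%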;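 note: 0% = DMSO wells and 100% = Ran loaded with GDP instead of GTP; wells of about 40 µL received 100 nL stock; the first replicate is given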
# T cruzi repl: blocks replication of Trypanosoma cruzi. T. cruzi beta-gal in NIH3T3, luminescence, 90 h. inhibition, % (test concentration not listed). 300,000 compounds, 1.4% hits. AID 1885;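 active = mean inhibition across valid replicates above about 55%, limit read from the data; inconclusive = mean below that limit but half or more replicates reach it; inactive = mean below it, under half of replicates reach it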;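 note: signal also drops with host cell toxicity which is not excluded here; 0% = plate median of DMSO wells and 100% = zero luminescence signal; higher percent means less beta-gal luminescence so fewer parasites; stock transfer was 50 nL into about 50 µL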
# Calb FLC: affects C. albicans growth with fluconazole | C. albicans CaCi-2 (fluconazole-resistant clinical isolate) + fluconazole, Alamar Blue growth, 48 h | growth inhibition, % (no concentration beside the values) | 300,000 compounds, 0.57% hits | AID 1979;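 active = most replicates above 75%; inconclusive = exactly half above 75%; inactive = most below 75%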;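 note: all wells also contain fluconazole at 8 µg/ml as a sub-toxic cotreatment; 0% = median of DMSO wells and 100% = median of geldanamycin control wells; wells of about 8 µL received 7.5 nL stock; the first replicate is given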
# ALR inh: human ALR oxidase inhibition via reduced H2O2; P55789; purified ALR, DTT oxidation, H2O2 HRP-luminol luminescence; inhibition, % (concentration not given with the values); 290,000 compounds, 3.8% hits; AID 485317;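 active = mean and each replicate at 75% or more; inconclusive = only one of the two met; inactive = neither met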;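 note: stock transfer was 7.5 nL into about 7.5 µL; 0% = neutral wells and 100% = wells with inactivated enzyme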
# Target sequence (P55789 whole entry, looked up): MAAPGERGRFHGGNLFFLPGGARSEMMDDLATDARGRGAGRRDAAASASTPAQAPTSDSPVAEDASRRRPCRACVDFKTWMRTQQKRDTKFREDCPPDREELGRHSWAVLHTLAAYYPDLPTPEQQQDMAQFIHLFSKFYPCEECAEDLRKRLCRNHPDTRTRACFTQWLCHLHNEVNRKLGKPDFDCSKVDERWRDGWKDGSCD
# Beta cell apopt: beta cell apoptosis inhibition; protection from apoptosis, % (concentration not given with the values); 300,000 compounds, 0.8% hits; INS-1E cytokine-induced death, ATP luminescence, 48 h; percent of positive-control rescue, neutral wells zero;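 active = all replicates at 75% or more, or half of them and the mean; inconclusive = half reach 75% but not the mean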;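 note: 0% = cytokine-treated negative control wells and 100% = positive control rescue; higher means more ATP so stronger rescue from cytokine killing; wells of about 40 µL received 100 nL stock; the first replicate is given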
# AF4-AF9 inh: inhibitors of human MLL-AF4/AF9 interaction. P42568. 350,000 compounds, 0.47% hits. inhibition, % at 10 µM. AID 651704. AlphaScreen, biotin-AF4 peptide binding to FLAG-AF9;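 active = every replicate reaching a set inhibition limit, whatever the replicate mean, cut at about 25% in these data; inconclusive = mean inhibition reaches that limit but some replicates miss it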;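 note: 0% = plate neutral control median and 100% = total signal loss; the record names both 10 and 1 µM as test concentration; the first replicate is given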
# Target sequence (P42568 whole entry, looked up): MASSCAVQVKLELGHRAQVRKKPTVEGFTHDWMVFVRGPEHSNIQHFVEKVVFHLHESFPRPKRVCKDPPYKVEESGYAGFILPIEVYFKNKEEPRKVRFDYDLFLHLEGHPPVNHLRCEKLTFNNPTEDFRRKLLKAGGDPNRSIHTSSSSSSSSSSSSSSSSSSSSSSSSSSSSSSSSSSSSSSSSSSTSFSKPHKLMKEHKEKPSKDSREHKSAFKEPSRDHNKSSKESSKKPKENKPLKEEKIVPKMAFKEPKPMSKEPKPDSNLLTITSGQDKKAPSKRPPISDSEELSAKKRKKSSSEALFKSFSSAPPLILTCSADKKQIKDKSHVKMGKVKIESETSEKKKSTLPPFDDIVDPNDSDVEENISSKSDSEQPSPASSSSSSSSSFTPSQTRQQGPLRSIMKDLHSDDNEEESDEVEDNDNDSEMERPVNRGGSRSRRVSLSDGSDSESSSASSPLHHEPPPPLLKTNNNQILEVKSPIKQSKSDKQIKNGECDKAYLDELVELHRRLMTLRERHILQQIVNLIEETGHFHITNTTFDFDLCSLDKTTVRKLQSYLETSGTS
# FGF22 binding: shifts melting point of recombinant human FGF22; recombinant FGF22 thermal shift, SYPRO orange fluorescence; percent of sucrose octasulfate shift, DMSO zero; calls only at 9.99 µM; 340,000 compounds, 1.5% hits; AID 651658;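 active = melting point raised past a set limit in the mean and every replicate; inconclusive = no clear call; three in four hits are not shown here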
# Target sequence (Q9HCT0 whole entry, looked up): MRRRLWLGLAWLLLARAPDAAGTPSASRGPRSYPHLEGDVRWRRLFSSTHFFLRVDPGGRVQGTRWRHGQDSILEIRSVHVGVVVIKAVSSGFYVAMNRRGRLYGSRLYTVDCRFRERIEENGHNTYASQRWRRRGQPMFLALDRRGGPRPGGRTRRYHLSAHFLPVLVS
# Ecoli rRNA inh OD600: also measured in Ecoli rRNA inh; calls as there; OD600 change, %; measured here: OD600 growth;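 optical density of the mix in the first replicate; 0 = DMSO median and -100 = no signal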
# Ecoli rRNA inh RFP: further read-out of Ecoli rRNA inh, marked with its call; RFP signal change, %; measured here: RFP humanized mutant strains;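 first replicate; 0 = DMSO median and -100 = no signal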
# Starred values were filed as active, the others as inactive; i = inactive; ? = inconclusive; . = not tested or not shown; + = active, no number; & = joins results of further samples. Only part of the results is shown. The share of hits here may be higher or lower than overall.
SMILES,Ecoli rRNA inh,Ecoli rRNA inh OD600,Ecoli rRNA inh RFP,RanGTP-Imp inh,T cruzi repl,Calb FLC,ALR inh,Beta cell apopt,AF4-AF9 inh,FGF22 binding
O=C(COC(=O)Cc1n[nH]c(=O)c2ccccc12)NNC(=O)c1ccc(Br)cc1,1,0,-1.3,.,.,.,20,2,-1.5,i
CC1CN(C(=O)COC(=O)c2cc(S(N)(=O)=O)c(Cl)cc2Cl)CC(C)O1 (stereo not given),12,18,-0.2,-4.4,0,2,-1,1,-0.2,i
Cc1ccccc1NC(=O)CC(=O)Nc1ccccc1C,9,11,0.6,2.9,-4,-1,3,-8,-1.3,i
Cc1cc(Br)cc2c1N(C)C(=O)C2(c1ccc(O)cc1)c1ccc(O)cc1,1,2,2.4,1.5,22,34,-5,-2,0.5,i
CCc1ccc(N=C2NC(=O)CS2)cc1,-22,-39,-6.4,-5.3,7,5,-8,2,-1.2,i
CCC1=Nc2cc(C(=O)NCc3ccco3)ccc2Sc2ccccc21,.,.,.,-0.2,0,-7,2,-2,.,.
Cc1ccc(NC(=O)CCOc2ccccc2)cc1,13,4,-2.7,-3.9,-11,1,-7,-2,0.0,i
COc1ccc(CCNC(=O)CSc2nc(=O)n3cc(C)ccc3n2)cc1OC,7,14,-0.4,1.7,-2,1,2,-1,7.6,i
CC(C)c1cc(C(=O)O)c2cnn(C(C)C)c2n1,1,2,0.9,-2.0,7,3,-2,0,-1.8,i
CC(=O)O[C@H]1C[C@@]2(C)[C@@H](C[C@@H](O)[C@H]3[C@@]4(C)CC[C@@H](O)[C@@H](C)[C@@H]4CC[C@@]32C)/C1=C(\CCC=C(C)C)C(=O)O,-55&-45,-73&-72,-15&-8.9,2.5,-20,13,9&15,3&-2,-2.6&4.8,i
COc1ccc(-n2cnc3sc(-c4ccccc4)cc3c2=O)cc1,.,.,.,3.3,9,-7,-2,-2,.,.
CCC1=NN(C(=O)CCc2ccccc2O)C(O)(C(F)(F)F)C1 (stereo not given),.,.,.,-5.0,-8,7,39,.,.,.
COc1ccccc1NC(=O)CSc1ccc2nnc(CCNC(=O)c3ccccc3)n2n1,2,0,-2.4,6.4,-7,-1,2,.,0.9,i
O=C(NCC1CCOCC1)c1ccc2nc(Cc3cccc(Cl)c3)oc2c1,1,-28,6.0,-0.1,-5,-15,3,-8,-0.1,+
CC1(C)CC[C@]2(C(=O)O)CC[C@]3(C)C(=CC[C@@H]4[C@@]5(C)CC[C@H](O[C@@H]6O[C@H](C(=O)O)[C@@H](O)[C@H](O[C@@H]7OC[C@H](O)[C@H](O)[C@H]7O)[C@H]6O)C(C)(C)[C@@H]5CC[C@]43C)[C@@H]2C1,8,-1,6.9,.,.,.,3,109*,-0.2,i
Cc1cc(C)c2c(N)c(C(=O)NC3CC3)sc2n1,.,.,.,5.4,-14,0,14,-1,.,.
CN(C)/N=C/c1ccc(P(c2ccc(/C=N/N(C)C)o2)c2ccc(/C=N/N(C)C)o2)o1,-2,-4,2.7,-2.5,-5,10,38,-3,8.8,i
CC1CCCC(NC(=O)CN2C(=O)c3cccnc3Oc3ccc(Cl)cc32)C1C (stereo not given),-8,-9,2.0,7.2,-6,4,7,-1,0.7,i
COc1cc(C(=O)NC2=NCCS2)ccc1OCc1c(C)noc1C,.,.,.,-5.0,1,-1,4,-6,.,.
Cc1cccc([C@H](NC(=O)OC(C)(C)C)C(=O)OC(C)(C)C)c1,8,13,-1.1,.,.,.,1,-3,3.4,i
Clc1cccc(Nc2nc(N3CCOCC3)nc(N3CCOCC3)n2)c1,6,1,-3.1,2.9,13,1,-4,-6,-3.0,i
CCN(CC(=O)Nc1c(F)cccc1F)C(=O)c1ccc(-c2ccc(C(C)=O)cc2)o1,.,.,.,.,.,.,-3,3,1.5,i
COc1ccccc1NC(=O)Cn1c(O)c(N=NC(=O)c2ccccc2O)c2ccccc21,21,9,1.2,2.5,-1,16,-1,18,-1.3,i
CCN1CCc2c(sc(N)c2C(N)=O)C1,.,.,.,101*,-7,0,-7,-2,.,.
CCOc1ccc(N(CC(=O)NCCSc2ccccn2)S(C)(=O)=O)cc1,.,.,.,?,-14,-38,-2,6,.,.
SMILES,Ecoli rRNA inh,Ecoli rRNA inh OD600,Ecoli rRNA inh RFP,RanGTP-Imp inh,T cruzi repl,Calb FLC,ALR inh,Beta cell apopt,AF4-AF9 inh,FGF22 binding
COc1cccc(-n2c(SCC(=O)NC3CCCCC3)nc3n[nH]c(C)c3c2=N)c1,.,.,.,-3.5,-1,11,-1,3,.,.
CC1CC(=O)N(CC(=O)Nc2ccc(F)cc2F)c2ccccc2S1(=O)=O (stereo not given),6,16,-1.0,3.3,-5,-24,-2,0,-0.6,i
Cn1c(=O)c2c3c(sc2n2cnnc12)CCC3,.,.,.,1.0,10,13,-4,-8,.,.
COc1ccc(NS(=O)(=O)c2cc(OCC(N)=O)c(C)cc2Cl)cc1,.,.,.,-0.1,-6,-4,-13,6,.,.
c1cc2c3c(cccc3c1)NC(c1ccc3c(c1)OCO3)N2,-17,48,-15,0.4,19,0,-3,5,34*,i
CC(=O)c1ccc(Oc2cc(C)nc(-n3nc(C)cc3C)n2)cc1,.,.,.,-0.1,-18,1,-25,7,.,.
CC(C)CC(NC(=O)C1CCC(C)CC1)C(=O)NCc1ccccn1 (stereo not given),.,.,.,-1.2,-1,-4,-9,-4,.,.
O=C1C(N2CCOCC2)=C(n2nnc3ccccc32)C(=O)c2ccccc21,.,.,.,1.5,?,-19,-17,120*,.,.
CC(C)(C)OC(=O)Nc1ccc([C@@H](NC(=O)OC(C)(C)C)C(=O)OC(C)(C)C)cc1,1,2,3.8,.,.,.,2,0,-12,i
CCc1ccc(NC(=S)N(CCCN2CCOCC2)Cc2ccco2)cc1,14,16,1.0,-2.3,-8,?,.,-4,2.1,i
O=C(Nc1nccs1)c1ccc(-c2ccc(Cl)cc2)o1,6,8,7.4,2.6,13,2,5,4,-28,i
COc1ccc(OCC(=O)Nc2ccc(NC(=O)c3cccs3)c(OC)c2)cc1,-1,3,0.2,-2.7,20,-18,4,0,-3.1,i
O=C(CSc1nnc(-c2ccccc2)c(-c2ccccc2)n1)N1CCOCC1,.,.,.,-2.1,2,?,8,2,.,.
Cc1oc2c(c1C(=O)NCc1cccnc1)C(=O)c1ccccc1C2=O,.,.,.,?,50,-13,-57,.,.,.
CCC(C)Sc1cc(C)c(C#N)c2nc3ccccc3n12 (stereo not given),.,.,.,-16,18,5,.,13,.,.
CCOC(=O)C1CCN(c2ncnc3c2[nH]c2cccc(OC)c23)CC1,.,.,.,0.0,1,24,3,-1,.,.
O=C(Cc1ccccn1)c1ccccc1,5,8,1.3,4.4,-4,-3,7,-4,-0.7,i
COc1ccc(C(=O)Nc2nc(N)n(-c3ccccc3)n2)cc1,.,.,.,2.7,-10,-2,7,3,.,.
O=C(Nc1ccc(Br)cc1)c1cccc2c1C(=O)N(C1CCCCC1)C2,6,8,-2.5,-0.2,-11,8,-4,-2,-0.2,i
CCOC(=O)CCc1c(C)c2ccc(OCC(=O)OC(C)C)cc2oc1=O,.,.,.,-0.2,6,23,1,1,.,.
COc1ccc(-c2nc3ccccc3c(=O)n2CCOc2c(C)cccc2C)cc1,20,19,1.2,6.3,31,8,.,7,-2.7,i
Cc1cc([N+](=O)[O-])ccc1NC(=S)NC(=O)Cc1ccccc1,.,.,.,-1.9,-12,32,-6,-4,.,.
COc1ccc2[nH]cc(CCNS(=O)(=O)c3ccc(F)cc3)c2c1,-10,-7,-2.3,2.7,4,6,22,-5,3.9,i
CC(OC(=O)c1ccccc1OCc1ccc(Cl)cc1)C(N)=O (stereo not given),-16,-14,0.7,?,-11,-9,.,-4,-0.6,i
COc1ccc(OC)c(/C=C2\Oc3cc(OCC(=O)N4CCC[C@H]4C(=O)O)ccc3C2=O)c1,.,.,.,-29,8,3,.,0,.,.

# Entries of single compounds as entered above. Order of values: Ecoli rRNA inh, Ecoli rRNA inh OD600, Ecoli rRNA inh RFP, RanGTP-Imp inh, T cruzi repl, Calb FLC, ALR inh, Beta cell apopt, AF4-AF9 inh, FGF22 binding
# Profile of O=C(Nc1ccc(Br)cc1)c1cccc2c1C(=O)N(C1CCCCC1)C2 = 6, 8, -2.5, -0.2, -11, 8, -4, -2, -0.2, i
# Profile of COc1cccc(-n2c(SCC(=O)NC3CCCCC3)nc3n[nH]c(C)c3c2=N)c1 = ., ., ., -3.5, -1, 11, -1, 3, ., .
# Profile of COc1ccc2[nH]cc(CCNS(=O)(=O)c3ccc(F)cc3)c2c1 = -10, -7, -2.3, 2.7, 4, 6, 22, -5, 3.9, i
# Profile of CCOC(=O)C1CCN(c2ncnc3c2[nH]c2cccc(OC)c23)CC1 = ., ., ., 0.0, 1, 24, 3, -1, ., .
# Profile of COc1ccc(OC)c(/C=C2\Oc3cc(OCC(=O)N4CCC[C@H]4C(=O)O)ccc3C2=O)c1 = ., ., ., -29, 8, 3, ., 0, ., .

# Next part:
SMILES,Ecoli rRNA inh,Ecoli rRNA inh OD600,Ecoli rRNA inh RFP,RanGTP-Imp inh,T cruzi repl,Calb FLC,ALR inh,Beta cell apopt,AF4-AF9 inh,FGF22 binding
COc1ccc(OC)c(C2C(C(=O)c3cccs3)=C(O)C(=O)N2CCN2CCOCC2)c1 (stereo not given),1,9,1.2,1.5,-1,-2,-18,3,1.2,i
O=C(Nc1cccc(Cl)c1)c1ccc(F)c(S(=O)(=O)N2CCN(c3ccccn3)CC2)c1,.,.,.,0.1,49,0,.,10,.,.
Cc1cc(C)cc(NC(=S)Nc2ccc3cn[nH]c3c2)c1,.,.,.,5.8,-10,12,.,3,.,.
Nn1c(SCC(=O)Nc2ccc3c(c2)OCCO3)nnc1-c1ccccn1,.,.,.,4.0,-8,-2,-3,10,.,.
COc1ccc(NC(=O)CSc2nnc(-c3ccoc3C)n2CC2CCCO2)cc1 (stereo not given),.,.,.,-0.5,2,-7,-4,0,.,.
COc1cc2[nH]c(C(=O)N3CC(C)OC(C)C3)cc2c(OC)c1OC (stereo not given),12,-3,3.8,-1.5,-6,-1,-1,-4,-0.9,i
CCN1C(=O)C(O)(C2COC(C)(C)CC2=O)c2ccccc21 (stereo not given),.,.,.,-1.1,-20,-26,-6,-7,.,.
COc1ccc(C=O)cc1CSc1ncccc1C(=O)O,7,8,-2.0,0.5,-14,2,0,-13,-1.2,i
O=C1ON=C(c2ccccc2[N+](=O)[O-])/C1=C/c1cccc([N+](=O)[O-])c1O,11,18,0.7,.,.,.,-7,-2,-3.6,i
O=S(=O)(c1ccccc1F)N1CCC(c2nc3ccccc3[nH]2)CC1,-2,-9,-3.2,6.0,0,0,0,11,-38,.
COc1ccc(/C=C2\SC(=S)N(CCCC(=O)Nc3ccccc3C(=O)O)C2=O)cc1OC,0,-14,1.7,-26,-4,25,.,-4,-0.6,i
COc1cc(NC(=O)CCC(=O)OCCCC(F)(F)C(F)(F)F)nc(OC)n1,2,-4,0.0,3.2,-9,1,1,-4,-1.9,i
O=C(Cc1ccc(S(=O)(=O)N2CCCC2)s1)Nc1nc2c(s1)CCCC2,.,.,.,0.2,-8,-15,9,2,.,.
